Bioassay records from PubChem.
VDR inh – vitamin D3 receptor (human) inhibition. P11473. VDR-SRC2-3 peptide fluorescence polarization, 2 h. Potency, µM, without a hit: max response, negative = inhibition, usual class: inhibitors. hit rate 0.93% among 400,000. AID 504847; active = well fitted inhibition curve with a large enough effect; inconclusive = small, poorly fitted or top-dose-only effect, or another doubt; inactive = no such curve, though single readings can be large or run the other way; also: series mostly up to about 120 µM
Target sequence (P11473 whole entry, looked up): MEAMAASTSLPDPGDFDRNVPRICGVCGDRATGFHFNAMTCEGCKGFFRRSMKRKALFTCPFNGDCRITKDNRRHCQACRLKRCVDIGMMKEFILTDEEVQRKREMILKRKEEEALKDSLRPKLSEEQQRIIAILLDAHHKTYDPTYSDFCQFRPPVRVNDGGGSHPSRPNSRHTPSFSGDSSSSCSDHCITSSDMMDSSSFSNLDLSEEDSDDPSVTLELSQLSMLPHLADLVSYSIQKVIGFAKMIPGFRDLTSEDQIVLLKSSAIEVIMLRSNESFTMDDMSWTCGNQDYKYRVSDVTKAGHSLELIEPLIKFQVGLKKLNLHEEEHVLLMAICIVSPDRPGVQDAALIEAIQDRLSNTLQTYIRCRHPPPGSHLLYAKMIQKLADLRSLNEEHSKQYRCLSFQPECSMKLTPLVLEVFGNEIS
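Compounds are added to VDR with labelled SRC2-3 coactivator peptide and held 2 h at room temperature. Inhibition of the VDR–peptide interaction is then read as a change in fluorescence polarization.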
The depositor's hits bear a star; u = inconclusive; [ ] = dose if it differs, or a comment. % is scaled to controls: 0 for no effect and ±100 for the full control effect; potency is read from the fitted curve at half-maximal effect. Some of the compounds tested (hit frequency here may not be typical).

SMILES	VDR inh
C=CCN(c1ccccc1OC)S(=O)(=O)c1cccc(C(=O)NCC(c2ccc(OC)cc2)N2CCCC2)c1 (configuration not stated)	2%
CCc1ccc(CNC(=O)CCSCc2ccccc2F)cc1	7%
CCOC(=O)CCCCCCCCC(=O)Nc1ccc(-n2[nH]c(=O)cc2C)cc1	-5%
CN(C)c1ccc(/C=C2\CCCc3c2nc2ccccc2c3C(=O)O)cc1	6%
CCCCC(=O)N(CCC)CCC	-3%
COc1ccc(N2CC(C(=O)N[C@@H](C)C(=O)NC(C)c3ccccc3)CC2=O)cc1 (some centres not stated)	6%
Nc1cc2[nH]c(=O)c3ccccc3c2cc1[N+](=O)[O-]	u
O=C(Nc1ccccc1OC(F)F)C1CC(=O)N(Cc2ccccc2)C1 (configuration not stated)	1%
CCn1nnc2cc(C(=O)NCCc3ccccc3F)ccc21	11%
CC(=O)c1ccc(S(=O)(=O)N2CCN(c3nc(-c4cccnc4)nc4ccccc34)CC2)cc1	-10%
COc1cccc(N2CCN(C(=O)CCCCCn3c(=O)[nH]c4ccccc4c3=O)CC2)c1	8%
OC/C=C/c1ccccc1	0%
COc1ccc(-c2oc3ccc(-c4ccc5c(c4)OCO5)cc3c2-c2ccc(OC)nc2)cc1	-17%
COc1ccc(OCc2cc(C(=O)N(C)Cc3nnc(C)o3)no2)c(Cl)c1	-14%
C=CCOc1cccc(C(=O)NC(c2ccccc2)C(C)C)c1 (configuration not stated)	-6%
Cc1ccc(S(=O)(=O)NCCC(c2ccccc2)c2ccco2)cc1 (configuration not stated)	-11%
NC(=O)C1(N2CCCCC2)CCN(C(=O)Nc2ccc(F)cc2F)CC1	-9%
O=C(NCc1ccco1)C1CCN(C(=O)c2ccc([N+](=O)[O-])cc2)CC1	-12%
CCN(CC)CCN1C(=O)C(O)=C(C(=O)c2cc3cccc(OC)c3o2)C1c1ccc(F)cc1 (configuration not stated)	2%
Cc1ccccc1-n1nc2c(c1NC(=O)c1c(-c3ccccc3Cl)noc1C)CSC2	u
Cc1cc(-c2nn(C)c(=O)c3ccccc23)ccc1CNC(=O)NC1CCCCC1	4%
CC1=NOC2(C1)N(C)c1ccccc1C2(C)C (configuration not stated)	3%
COc1nc(N)nc(NC(=O)c2cccs2)c1N=O	u
CCC1CCCCN1CCCNC(=O)c1ccc(N2CCCC2=O)cc1 (configuration not stated)	19%
O=C(NCc1ccccn1)c1ccc(Cn2cc(Br)cn2)o1	4%
Cc1ccc(Cn2nnc3c(=O)n(Cc4ccccc4C)cnc32)cc1	-2%
Cc1nc(SCC(=O)NCc2ccccc2)c2oc3ccccc3c2n1	1%
COc1ccc(NC(=O)CSc2nnc(Cc3cccn3C)n2CCc2ccccc2)c(OC)c1	15%
CCCC(=O)Nc1nnc(Cc2ccccc2)s1	0%
O=C(c1ccccc1)c1n[nH]c(-c2ccccc2)cc1=O	8%
COC(=O)CSc1ccc(C#N)c(SCC(=O)OC)c1	-5%
O=C(CSc1nnc(CNC(=O)c2c(F)cccc2F)o1)NCc1ccccc1	-5%
CCC(C)(C)n1nnnc1C(c1ccc(OC)c(OC)c1)N1CCN(c2cccc(OC)c2)CC1 (configuration not stated)	-3%
Clc1ccc(CNc2ccccn2)cc1	19%
CC1CCCCN1CCCNC(=O)c1ccc2c(c1)sc1nc(-c3ccc(F)cc3)cn12 (configuration not stated)	1%
Cc1ccc(-n2nc(-c3ccco3)cc2C(=O)NCc2cccnc2)cc1	71µM*
CCOCC(=O)Nc1ccc2c(c1)N(S(=O)(=O)c1cccs1)CCC2	-3%
Cc1ccc2oc(=O)c3cc(C(=O)NCc4ccco4)sc3c2c1	-23%
CC(O)CN(CCC(N)=O)CCC(N)=O (configuration not stated)	13%
CCCNC(=O)Cn1nc(C(F)(F)F)c2c1CCC2	1%
O=C(CSc1nnc(-c2cccs2)n1CC1CCCO1)c1cc2ccccc2o1 (configuration not stated)	u
COc1ccc(CC2(CO)CCN(Cc3c(C)nn(C(C)C)c3C)CC2)cc1	12%
O=C(CCCn1c(=O)c2cccn2c2cccnc21)NCc1ccc(F)cc1	9%
CC(C)NC(=O)CSc1nc(-c2ccccc2)cs1	3%
CC(Sc1nnc(COc2ccccc2)n1-c1ccccc1)C(=O)O (configuration not stated)	-24%
O=C(Nc1cccc(Cl)c1N1CCCC1)c1ccc(Br)o1	2%
CCC(C)c1ccc(NC(=O)COC(=O)CCNS(=O)(=O)c2cccs2)cc1 (configuration not stated)	6%
O=C(Oc1nsnc1N1CCOCC1)N1CCCC1	-12%
CCOc1cc(S(=O)(=O)Nc2ccc(CC)cc2)ccc1Cl	-13%
COc1ccc(OC)c(NC(=O)C2CCC(CNc3c(N4CCOCC4)c(=O)c3=O)CC2)c1 (configuration not stated)	8%
CC(C)(C)S(=O)(=O)/C(C#N)=N/Nc1ccc(C#N)cc1	-1%
CCOc1ccc2nc(NC(=O)Nc3cccs3)sc2c1	-5%
COc1ccc(CCNC(=O)CSc2ccsc2[N+](=O)[O-])cc1OC	-16%
Cc1ccccc1NC(=O)CCNC(=O)Cn1ccc2ccccc2c1=O	-10%
CC(=O)Nc1ccc(C(=S)NCC2(N(C)C)CCCCC2)cc1	9%
CCN(Cc1ccccc1)C(=O)Cn1c(=O)n(-c2cccc(C)c2)c(=O)c2c1c1cc(OC)ccc1n2C	3%
O=C(NCc1ccco1)c1cnn2c1NC(c1ccccc1)CC2C(F)(F)F (configuration not stated)	-7%
COCCNC(=O)c1cc(C(=O)CC(C)C)c[nH]1	-8%
COc1ccc(CCC(=O)NNC(=O)Nc2ccc(OC)c(OC)c2)cc1	11%
Cn1nc(-c2ccc(OCC(=O)NCC3CCCO3)cc2)c2ccccc2c1=O (configuration not stated)	2%

Reprinted at random: 3 compounds from above.
SMILES	VDR inh
COc1ccc(CCNC(=O)CSc2ccsc2[N+](=O)[O-])cc1OC	-16%
O=C(NCc1ccco1)c1cnn2c1NC(c1ccccc1)CC2C(F)(F)F (configuration not stated)	-7%
CCOc1ccc2nc(NC(=O)Nc3cccs3)sc2c1	-5%

Next part:
SMILES	VDR inh
COc1ccc(NC(=O)N2CCN(S(C)(=O)=O)CC2)cc1OC	16%
CC[C@@]1(C(=O)OC)N[C@H](CN(C)C(=O)NC(C)C)[C@@H]2C(=O)N(Cc3ccccc3)C(=O)[C@@H]21	2%
COc1ccc(NC(=O)C2CCCN(C(=O)Nc3ccc(OC)cc3)C2)cc1 (configuration not stated)	-11%
COc1ccc(C(=O)Nn2c(SCC(=O)NCC3CCCO3)nc3ccccc3c2=O)cc1 (configuration not stated)	-1%
COc1cccc(Cc2nc3ccccc3nc2SCC(=O)NCCc2ccccc2)c1	2%
Brc1ccc(C2C3=C(Nc4ncnn42)c2ccccc2OC3c2ccncc2)cc1 (configuration not stated)	10%
Cc1nn(-c2ccccc2)c(C)c1C(=O)OCC(O)=C(C#N)c1nc2ccccc2[nH]1	1%
Nc1ccc(Cc2ccc(N)c(C(=O)O)c2)cc1C(=O)O	10%
O=C(CSc1nnc(-c2ccccc2)n1-c1ccc(Cl)cc1)NNC(=S)Nc1ccccc1	-13%
COc1ccc(NC(=O)c2cc(S(=O)(=O)NCC3COc4ccccc4O3)ccc2F)cc1 (configuration not stated)	1%
O=C(NCCCn1ccnc1)Nc1ccc(Cl)cc1Cl	-5%
CN(Cc1cccs1)c1ncnc2sccc12	7%

Laid out differently: 3 of the compounds above.
SMILES: COc1ccc(NC(=O)C2CCCN(C(=O)Nc3ccc(OC)cc3)C2)cc1 (configuration not stated)
  VDR inh = -11%

SMILES: COc1ccc(C(=O)Nn2c(SCC(=O)NCC3CCCO3)nc3ccccc3c2=O)cc1 (configuration not stated)
  VDR inh = -1%

SMILES: COc1cccc(Cc2nc3ccccc3nc2SCC(=O)NCCc2ccccc2)c1
  VDR inh = 2%

5 structures from above, arranged by number of heavy atoms, largest number first.
SMILES	VDR inh
O=C(CSc1nnc(-c2ccccc2)n1-c1ccc(Cl)cc1)NNC(=S)Nc1ccccc1	-13%
Cc1nn(-c2ccccc2)c(C)c1C(=O)OCC(O)=C(C#N)c1nc2ccccc2[nH]1	1%
Brc1ccc(C2C3=C(Nc4ncnn42)c2ccccc2OC3c2ccncc2)cc1 (configuration not stated)	10%
COc1ccc(NC(=O)C2CCCN(C(=O)Nc3ccc(OC)cc3)C2)cc1 (configuration not stated)	-11%
CN(Cc1cccs1)c1ncnc2sccc12	7%

Next part:
SMILES	VDR inh
CCCCC(CC)C(=O)Nc1cc(C(=O)NCc2ccc(C)cc2)ccc1N1CCC2(CC1)CC(c1ccccc1)=NO2 (configuration not stated)	-16%
CCN(CC)c1ccc(C(=O)NC(=S)Nc2cc(S(=O)(=O)N3CCOCC3)ccc2-n2cncn2)cc1	-7%
CCOc1ccc(C(CC(=O)O)NC(=O)CCCOc2ccc(Cl)cc2C)cc1 (configuration not stated)	-21%
Clc1ccc(CCNc2nc3cc(Cl)c(Cl)cc3n3cnnc23)cc1	7%
c1ccc(Oc2cccc(OCCCCN3CCCC3)c2)cc1	3%
COc1cc(/C=C2\SC(=S)N(CC(=O)Nc3ccc(O)cc3)C2=O)cc(OC)c1OC	-21%
Cc1ccc(-c2cc(NC(=O)COc3c(C)cc(C)cc3C)on2)cc1	3%
O=C(C[n+]1ccc(/C=N/O)cc1)N1CCCCC1	-4%
O=C(Nc1ccc(N2CCCCC2)c(S(=O)(=O)Nc2ccccc2Cl)c1)c1cccnc1	-15%
O=S(=O)(c1ccc(-c2nnc(SCc3nnc(-c4ccccc4)o3)o2)cc1)N1CCCC1	11%
CC(=O)c1ccc(S(=O)(=O)N2CCN(CCOc3ccccc3)CC2)cc1	8%
Cc1cccc(N2C(=O)/C(=C\c3ccc(OC(F)F)cc3)c3ccccc3C2=O)c1	35µM*
CCN(CC)CCOc1ccccc1C(C)=O	33%[activator]
Cc1ccc(NC(=O)Cn2c(-c3nonc3N)nc3ccccc32)cc1C	-8%
CS(=O)(=O)N(CC(=O)NCCSCc1cccc(Cl)c1)c1ccccc1F	-5%
Cc1cc(Nc2ccccc2)n(-c2cccc(Cl)c2)n1	-14%
CCn1c(=O)c2cc(C(=O)Nc3cc(F)ccc3F)sc2c2ccccc21	3%
COCCOc1ccc(C(F)(F)F)cc1NC(=O)Cc1ccc(S(=O)(=O)N2CCOCC2)s1	2%
Cc1nn(-c2ccc(F)cc2)c(-n2cccc2)c1C(=O)NCCc1ccc(Cl)cc1	4%
O=C(COc1ccccc1F)Nc1cc(S(=O)(=O)Nc2cccc(Cl)c2)ccc1O	-19%
Cc1ccc(OCC2Cn3c(nc4c3c(=O)[nH]c(=O)n4C)O2)cc1C (configuration not stated)	-3%
O=C(OCC(=O)N1CCCc2ccccc21)c1ccccc1[N+](=O)[O-]	-7%
O=C(NCC(=O)N(c1ccccc1F)C(C(=O)NC1CCCC1)c1ccco1)c1ccco1 (configuration not stated)	-13%
CN(C(=O)COC(=O)C1COc2ccccc2O1)C1(C#N)CCCCC1 (configuration not stated)	-4%
CCSc1ncc(CO)c(N)n1	5%
COCCSc1nnc(NC(=O)C2CCCCC2)s1	-5%
CC(C)CNC(=O)c1cccc(NC(=O)Cc2ccc(Cl)cc2)c1	7%
Cc1cccc(CS(=O)(=O)Cc2ccc(C(=O)NCC3CCCO3)o2)c1 (configuration not stated)	-9%
O=C(NC(=O)c1ccccc1)Nc1ccc(-n2nc(C(F)(F)F)cc2C(F)(F)F)cc1	0%
O=C1NC[C@@H](Cc2cccc3ccccc23)N(CCC23CC4CC(CC(C4)C2)C3)C1=O	u
Cc1c(S(=O)(=O)Nc2cccc(Cl)c2)c(=O)n(C)c(=O)n1C	9%
O=C(Cn1cnc2c(nc3n2CCCCC3)c1=O)Nc1ccc(F)cc1	12%
CC(C)(C)c1cc(S(=O)(=O)CCc2ccncc2)cc(C(C)(C)C)c1F	-4%
COC(=O)c1ccc(C2/C(=C(/O)c3ccc(OC)cc3)C(=O)C(=O)N2c2cc(C)on2)cc1 (configuration not stated)	0%
CCOC(=O)C1CCC(CN(Cc2c(Cl)cccc2Cl)S(=O)(=O)c2ccc(F)cc2)CC1 (configuration not stated)	-9%
CN(C)S(=O)(=O)c1cccc(NC(=O)CSc2nc3ccccc3n2-c2ccccc2)c1	-6%
CCCCCn1c(NC2CCCCC2)nc2c1c(=O)[nH]c(=O)n2C	-16%
COCCn1c(=O)c(-c2ccc(Cl)cc2)nc2cnc(Oc3ccccc3)nc21	-3%
COc1cc(-c2c(-c3cccc(C)c3)oc3ccccc23)cc(OC)c1OC	3%
COc1ccc(-c2cc(C(F)(F)F)nc(SCC(=O)N(C)Cc3cnn(C)c3C)n2)cc1OC	2%
Cc1ccccc1Nc1ccc(S(=O)(=O)N2CCOCC2)cc1[N+](=O)[O-]	-10%
O=C(NCc1nnnn1-c1ccc(F)cc1)c1ccc([N+](=O)[O-])o1	7%
CC(N)C12CC3CC(CC(O)(C3)C1)C2 (configuration not stated)	-14%
O=C(CSc1nnc(CNC(=O)c2ccco2)o1)c1ccccc1	-6%
CCCS(=O)(=O)N1CCN(S(=O)(=O)c2ccccc2[N+](=O)[O-])CC1	12%
O=C(COc1ccc([N+](=O)[O-])cc1)NCCC1=CCCCC1	-15%

Structural class: the compounds so far with a CF3 group
SMILES	VDR inh
CCCNC(=O)Cn1nc(C(F)(F)F)c2c1CCC2	1%
O=C(NCc1ccco1)c1cnn2c1NC(c1ccccc1)CC2C(F)(F)F (configuration not stated)	-7%
COCCOc1ccc(C(F)(F)F)cc1NC(=O)Cc1ccc(S(=O)(=O)N2CCOCC2)s1	2%
O=C(NC(=O)c1ccccc1)Nc1ccc(-n2nc(C(F)(F)F)cc2C(F)(F)F)cc1	0%
COc1ccc(-c2cc(C(F)(F)F)nc(SCC(=O)N(C)Cc3cnn(C)c3C)n2)cc1OC	2%
